Screens from PubChem BioAssay.
Vaccinia inh – blocks a specific stage of Vaccinia orthopoxvirus infection; Vaccinia-infected cells, mCherry/Venus stage reporter fluorescence; stronger effect = lower value; some inactives read as strong as hits; activity change (mCherry), % (no concentration beside the values); 89,000 compounds, 0.01% hits; AID 1053133;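 active means mCherry past -33% and 40 or more points under the early reporter, replicates agreeing; inconclusive means past -33% without that gap or agreement; tested in A549 cells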;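 further: scaled between vehicle wells and reference inhibitor wells; 23 nL library stock went into each well; one replicate is shown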
Vaccinia inh Venus – second read-out of Vaccinia inh, no call of its own (marks repeat the call); activity change (Venus), %; measured here: Venus reporter, other viral stage;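 negative = less Venus signal; first of two replicates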
The depositor's hits bear a star; ? = inconclusive; . = not tested or not shown. These rows are one share of the data; rates above refer to the full screens.

Compound,Vaccinia inh,Vaccinia inh Venus
C[C@H]1CN([C@@H](C)CO)C(=O)c2ccccc2-c2ccccc2CO[C@@H]1CN(C)S(=O)(=O)c1ccc(F)cc1,26.4,17.2
CO[C@H]1CN(C)C(=O)c2ccc(NC(=O)NC(C)C)cc2OC[C@@H](C)N(C(=O)CC2CC2)C[C@H]1C,10.5,10.6
C[C@@H]1CN([C@@H](C)CO)C(=O)c2cc(NS(=O)(=O)c3cccs3)ccc2O[C@@H](C)CCCCO[C@@H]1CN(C)Cc1ccc(C(=O)O)cc1,17.1,4.3
COc1ccccc1NC(=O)N(C)C[C@@H]1Oc2ncc(C#CCN(C)C)cc2C(=O)N([C@H](C)CO)C[C@@H]1C,0.8,-1.4
CO[C@@H]1CN(C)C(=O)c2cc(NC(=O)c3ccc(F)cc3)ccc2OC[C@H](C)N(C)C[C@@H]1C,-3.0,-3.7
CC(C)CC#Cc1ccc2c(c1)O[C@H](CN(C)C(=O)c1cccnc1)[C@@H](C)CN([C@H](C)CO)S2(=O)=O,-8.9,-1.0
C[C@H](CO)N1C[C@H](C)[C@@H](CN(C)C(=O)Nc2ccc(C(F)(F)F)cc2)Oc2ccc(NC(=O)Cc3ccccc3)cc2CC1=O,-23.8,-15.0
COc1ccc(-c2ccc3n(c2=O)C[C@@H]2[C@@H](CO)[C@H](C(=O)NCCN4CCCC4)N(C)[C@H]32)cc1,14.4,7.4
O=C(CC1CC1)N1CC(=O)N2[C@H](C1)[C@@H](c1ccc(C#Cc3cccc(F)c3)cc1)[C@@H]2CO,?,.
C[C@@H]1CN([C@H](C)CO)C(=O)c2cccc(NC(=O)Nc3ccc(C(F)(F)F)cc3)c2O[C@@H]1CN(C)S(=O)(=O)c1ccc(Cl)cc1,?,.
O=C(NCC1CC1)[C@@H]1[C@@H](CO)[C@@H]2Cn3c(ccc(-c4cccnc4)c3=O)[C@H]1N2C(=O)C1CCCC1,5.4,-5.3
O=C(Nc1ccccc1F)N[C@H]1CC[C@@H](CCNC(=O)C2CCOCC2)O[C@@H]1CO,9.6,8.5
COc1ccc(NC(=O)N(C)C[C@H]2Oc3ccc(NC(=O)C4CCCCC4)cc3CC(=O)N([C@@H](C)CO)C[C@@H]2C)cc1,-3.3,4.0
CC(=O)NC[C@H]1[C@H](c2ccc(-c3ccccc3F)cc2)[C@H](CO)N1C(C)=O,15.2,13.3
COc1ccc(NC(=O)N(C)C[C@@H]2Oc3ccc(NC(=O)Cc4ccccc4)cc3C(=O)N([C@H](C)CO)C[C@@H]2C)cc1,2.5,2.7
CC(=O)N1[C@H](C(=O)NCC2CC2)[C@@H](CO)[C@@H]2Cn3c(ccc(-c4cccc(F)c4)c3=O)[C@@H]21,9.6,7.2
C[C@H](CO)N1C[C@H](C)[C@@H](CN(C)C(=O)C2CCCCC2)OCCCC[C@H](C)Oc2ccc(NC(=O)Nc3ccccc3)cc2C1=O,1.5,-9.6
CC(C)NC(=O)NCC[C@H]1CC[C@H](NC(=O)Nc2ccccc2)[C@H](CO)O1,-9.4,-5.7
C[C@@H]1CN([C@H](C)CO)S(=O)(=O)c2ccc(-c3ccccc3F)cc2O[C@@H]1CN(C)Cc1cncnc1,-18.2,-19.4
C[C@H](CO)N1C[C@H](C)[C@H](CN(C)C(=O)Nc2ccc(F)cc2)Oc2ncc(C3=CCCC3)cc2C1=O,-2.3,2.5
C[C@@H]1CN([C@@H](C)CO)C(=O)c2cccc(N(C)C)c2O[C@H]1CN(C)Cc1ccc(-c2ccccc2)cc1,-22.5,-13.3
C[C@@H]1CCCCO[C@@H](CN(C)C(=O)C2CCCCC2)[C@H](C)CN([C@H](C)CO)C(=O)c2cc(NC(=O)Nc3ccc4c(c3)OCO4)ccc2O1,?,.
C[C@H](NC(=O)C[C@H]1C=C[C@H](NC(=O)Cc2ccccn2)[C@H](CO)O1)c1ccccc1,9.3,2.9
O=C(C[C@H]1C[C@H]2c3cc(NC(=O)Cc4ccncc4)ccc3O[C@H]2[C@H](CO)O1)NCCN1CCCCC1,-6.3,-3.8
C[C@H]1CCCCO[C@@H](CN(C)CC2CCCCC2)[C@@H](C)CN([C@@H](C)CO)C(=O)c2cc(NC(=O)Nc3cccc4ccccc34)ccc2O1,?,.
C[C@@H]1CN([C@@H](C)CO)C(=O)c2cccc(NS(=O)(=O)c3ccc(Cl)cc3)c2O[C@@H]1CN(C)CC1CC1,-15.1,-5.6
O=S(=O)(N[C@@H]1CC[C@@H](CCn2cc(-c3cccc(F)c3)nn2)O[C@H]1CO)c1ccccc1,12.7,7.9
CN1CCN(C(=O)C[C@@H]2CC[C@@H]3[C@H](COC[C@H](O)CN3C(=O)C3CC3)O2)CC1,7.5,5.4
COc1ccc2c3c(n(C)c2c1)[C@H](CO)N(C(=O)CC1CC1)CC31CN(Cc2nccs2)C1,16.7,2.3
O=C1N(CCS(=O)(=O)c2ccccc2)Cc2ccccc2[C@@H]2OC(c3ccc(OCCCO)cc3)=N[C@]12CCS(=O)(=O)c1ccccc1,-10.6,2.7
CC(=O)N1[C@H](CO)[C@H](c2ccc(-c3cncnc3)cc2)[C@@H]1CN(C)C(=O)C1CC1,22.2,18.2
CN(C)C(=O)C[C@@H]1CC[C@H]2[C@@H](COc3ccc(NS(=O)(=O)c4cccc(F)c4)cc3C(=O)N2C)O1,3.2,-0.6
C[C@@H]1CN([C@H](C)CO)C(=O)c2cc(/C=C/c3ccccc3)cnc2O[C@@H]1CN(C)Cc1ccncc1,-19.2,-18.2
O=C(C[C@H]1C=C[C@H](NC(=O)C2CCOCC2)[C@H](CO)O1)NCc1ccccc1Cl,4.1,8.5
CCC(=O)N(C)C[C@@H]1Oc2ncc(C#Cc3cccnc3)cc2C(=O)N([C@H](C)CO)C[C@@H]1C,17.0,13.9
CO[C@H]1CN(C)C(=O)c2cc(NS(=O)(=O)c3ccc(C)cc3)ccc2OC[C@@H](C)NC[C@@H]1C,-5.0,3.7
C[C@@H]1CN([C@@H](C)CO)C(=O)c2cc(NC(=O)CCC(F)(F)F)ccc2O[C@@H]1CN(C)C(=O)Nc1ccc(C(F)(F)F)cc1,8.9,5.6
C[C@H](CO)N1C[C@H](C)[C@H](CN(C)C(=O)c2cccc(F)c2)Oc2ncc(-c3cncnc3)cc2C1=O,10.4,-2.5
COc1cccc(-c2ccc3c(c2)[C@@H]2[C@@H](CCN2C(=O)c2ccccc2F)[C@@H](CO)N3C)c1,-24.4,-19.1
O=C(C1CCC1)N1CC2(C1)[C@H](c1ccccc1)[C@@H](CO)N2Cc1ccccc1F,-4.8,8.5
CC(C)NC(=O)Nc1ccc2c(c1)CC(=O)N([C@H](C)CO)C[C@H](C)[C@@H](CN(C)C(=O)NC1CCCCC1)O2,17.7,3.5
O=C(NCC1CC1)[C@H]1[C@H](CO)[C@H]2Cn3c(ccc(-c4ccncc4)c3=O)[C@@H]1N2CC1CC1,-3.5,0.0
C[C@@H]1CN([C@@H](C)CO)C(=O)c2cc(NC(=O)Nc3ccc(C(F)(F)F)cc3)ccc2O[C@@H]1CN(C)Cc1ccc(C(=O)Nc2ccccc2N)cc1,3.7,3.9
O=C(Nc1ccc(Cl)cc1)N[C@H]1CC[C@@H](CCNS(=O)(=O)c2ccccc2F)O[C@H]1CO,-11.5,-10.2
Cc1ccc(-c2cnc3c(c2)C(=O)N([C@H](C)CO)C[C@H](C)[C@@H](CN(C)C(=O)c2ccncc2)O3)cc1,2.5,-0.3
COCC(=O)N1CC[C@@H]2[C@H]1c1cc(-c3ccc(F)cc3)ccc1N(C)[C@H]2CO,4.6,-1.6
C[C@H]1CN([C@@H](C)CO)C(=O)c2c(c3ccccc3n2C)-c2ccccc2CO[C@@H]1CN(C)Cc1cccc(F)c1,?,.
COCC(=O)NC[C@H]1[C@H](c2ccc(C3=CCCC3)cc2)[C@H](CO)N1C(C)=O,11.0,0.3
C[C@H]1CN([C@@H](C)CO)C(=O)Cc2cc(NC(=O)CCN3CCOCC3)ccc2O[C@H]1CN(C)S(=O)(=O)c1ccc(Cl)cc1,-2.3,-8.9
C[C@@H]1CN([C@@H](C)CO)C(=O)c2cc(NS(=O)(=O)c3ccc(F)cc3)ccc2O[C@@H](C)CCCCO[C@@H]1CN(C)S(=O)(=O)c1cn(C)cn1,31.9,16.3

Brought forward from above: 3 compounds, then new ones.
Compound,Vaccinia inh,Vaccinia inh Venus
COCC(=O)NC[C@H]1[C@H](c2ccc(C3=CCCC3)cc2)[C@H](CO)N1C(C)=O,11.0,0.3
C[C@H]1CN([C@@H](C)CO)C(=O)Cc2cc(NC(=O)CCN3CCOCC3)ccc2O[C@H]1CN(C)S(=O)(=O)c1ccc(Cl)cc1,-2.3,-8.9
C[C@@H]1CN([C@@H](C)CO)C(=O)c2cc(NS(=O)(=O)c3ccc(F)cc3)ccc2O[C@@H](C)CCCCO[C@@H]1CN(C)S(=O)(=O)c1cn(C)cn1,31.9,16.3
O=C(C[C@@H]1C=C[C@H](NC(=O)Nc2cc(F)ccc2F)[C@@H](CO)O1)Nc1ccc(-c2ccccc2)cc1,0.4,2.4
O=C(Cc1ccccn1)NCC[C@@H]1CC[C@H](NC(=O)CN2CCOCC2)[C@H](CO)O1,1.1,1.3
CCNC(=O)C[C@@H]1CC[C@@H](NC(=O)C2CCC2)[C@H](CO)O1,6.4,7.0
C[C@@H]1CN([C@@H](C)CO)C(=O)c2cccc(NS(=O)(=O)c3ccccc3)c2O[C@@H]1CN(C)S(=O)(=O)c1cn(C)cn1,8.9,1.5
Cc1noc(C)c1S(=O)(=O)Nc1ccc2c(c1)C(=O)N([C@@H](C)CO)C[C@H](C)[C@H](CN(C)S(=O)(=O)c1ccc(Cl)cc1)OCCCC[C@H](C)O2,?,.
O=C(Nc1ccc(F)cc1)N[C@@H]1CC[C@@H](CCNS(=O)(=O)c2cccc(Cl)c2)O[C@H]1CO,-26.2,-17.2
C[C@@H]1CN([C@H](C)CO)C(=O)Cc2cc(NC(=O)CCN3CCOCC3)ccc2O[C@H]1CN(C)C(=O)NC1CCCCC1,17.2,8.8
Cc1cc(C(=O)Nc2cccc3c2O[C@@H](CN(C)C(=O)Nc2c(C)noc2C)[C@@H](C)CN([C@H](C)CO)C3=O)n(C)n1,-28.6,-29.8
CCCC(=O)Nc1ccc2c(c1)OC[C@H](C)N(C(=O)c1ccncc1)C[C@H](C)[C@H](OC)CN(C)C2=O,22.2,2.2
CCN(C[C@H]1N[C@H](CO)[C@@H]1c1ccc(-c2cccc(F)c2)cc1)C(=O)CN(C)C,?,.
CO[C@H]1CN(C)C(=O)c2cc(NC(=O)C3CCC3)ccc2OC[C@@H](C)N(C(=O)NC(C)C)C[C@@H]1C,4.1,3.9
C[C@@H]1CN([C@@H](C)CO)C(=O)c2cc(NC(=O)CCC(F)(F)F)ccc2O[C@@H](C)CCCCO[C@H]1CN(C)C(=O)C1CCCCC1,?,.
C[C@@H]1CN([C@H](C)CO)C(=O)CCCn2cc(nn2)CO[C@H]1CN(C)C(=O)Nc1ccnc(N2CCOCC2)c1,13.0,14.2
C[C@@H]1CN([C@H](C)CO)C(=O)c2cccc(NC(=O)NC3CCCCC3)c2O[C@@H]1CN(C)S(C)(=O)=O,11.7,4.6
Cc1ccc(-c2cnc3c(c2)C(=O)N([C@H](C)CO)C[C@H](C)[C@H](CN(C)C(=O)c2ccccc2)O3)cc1,-7.3,9.7
C[C@@H]1CN([C@@H](C)CO)C(=O)c2cc(NS(=O)(=O)c3cn(C)cn3)ccc2O[C@@H]1CN(C)Cc1ccc(-c2ccccc2)cc1,0.2,0.9
C[C@H]1CN([C@@H](C)CO)C(=O)c2cccc(NC(=O)C3CC3)c2O[C@H]1CN(C)Cc1ccc(C(=O)O)cc1,13.0,11.8
C[C@H](CO)N1C[C@H](C)[C@H](CN(C)Cc2ccncc2)OCCCC[C@H](C)Oc2ccc(NC(=O)CCCN(C)C)cc2C1=O,-6.2,0.6
CC(C)NC(=O)N1C[C@H]2[C@@H](c3ccccc31)[C@H](CO)N2C(=O)c1ccccn1,18.6,9.8
CCO[C@@H]1OC(C(=O)N2CCN(Cc3ccc4c(c3)OCO4)CC2)=C[C@H](C(C)(C)C)[C@H]1CCCO,-2.5,-1.0
C[C@@H]1CN([C@@H](C)CO)C(=O)c2cccc(NC(=O)c3ccncc3)c2O[C@H]1CN(C)Cc1ccc(Cl)c(Cl)c1,-10.0,-5.8
C[C@H]1CN([C@@H](C)CO)C(=O)c2cc(NC(=O)C3CCCCC3)ccc2O[C@H]1CN(C)Cc1ccc(C(=O)Nc2ccccc2N)cc1,-9.1,6.4

Three compounds picked at random from the list so far, as already listed:
Compound,Vaccinia inh,Vaccinia inh Venus
C[C@@H]1CN([C@@H](C)CO)C(=O)c2cc(NC(=O)CCC(F)(F)F)ccc2O[C@@H](C)CCCCO[C@H]1CN(C)C(=O)C1CCCCC1,?,.
C[C@@H]1CN([C@@H](C)CO)C(=O)c2cc(NS(=O)(=O)c3cn(C)cn3)ccc2O[C@@H]1CN(C)Cc1ccc(-c2ccccc2)cc1,0.2,0.9
Cc1ccc(-c2cnc3c(c2)C(=O)N([C@H](C)CO)C[C@H](C)[C@H](CN(C)C(=O)c2ccccc2)O3)cc1,-7.3,9.7
